Sa RN4220 lethal – S. aureus RN4220 growth inhibition; OD600, 16 h; inhibition, % (test concentration not listed); 0.33% of 330,000 active; AID 1259311;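 active = z-score of -3 or lower and OD600 up to 0.18 on both plates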;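 also: plate controls were untreated cells for no effect and reference antibiotic for full effect; stock transfer was 100 nL into about 80 µL; one replicate is shown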
PrP 5UTR inh – inhibition of PrP 5' UTR reporter expression; cell-based PrP 5' UTR mRNA reporter, plate reader; inhibition, % (no concentration beside the values); 0.35% of 340,000 active; AID 488862;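 active = every replicate at 50% or more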;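 also: 0 = median of the neutral control wells; tested in H4 reporter cells; numbers are from one replicate; inactives centre near -14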
Mtb hypoxia inh – inhibitors of hypoxia-regulated fluorescent reporter in Mycobacterium tuberculosis; M. tuberculosis hypoxia-regulated fluorescent reporter, fluorescence; 0.1% of 300,000 active; fluorescence inhibition, % (test concentration not listed);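 active = 35 to 45% if threefold the growth effect, above 45% if 1.5-fold the growth effect; inactive = the rest, general growth blockers included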;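 also: wells of about 50 µL received 100 nL stock; 0% = vehicle wells and 100% = reference inhibitor wells; whole bacteria with a GFP reporter of the hypoxia response; strong numbers were not always called active; many hits fall short of the cut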
Sa ugtP lethal – kills S. aureus RN4220 lacking UgtP; growth inhibition, % (concentration not given with the values); AID 1259309; 0.54% of 330,000 active; S. aureus RN4220 ugtP deletion, OD600 growth, 16 h; some inactives read as strong as hits;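 active = z-score under -3 and OD600 up to 0.15 on both plates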;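 also: plate controls were untreated wells for no effect and antibiotic for full effect; wells of about 80 µL received 100 nL stock; the first replicate is given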
Autofluor counter – compound fluorescence in toxin protease inhibitor counterscreen; compound autofluorescence counterscreen, microsphere flow cytometry; stronger effect = higher value; fluorescence intensity (no concentration beside the values); 3.1% of 360,000 active;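 active = at least 3 SD above the mean of all compounds, about 16000 in these data; inconclusive = too few beads counted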;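 also: 100 nL of 1 mM stock went into each well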
BJeLR lethal – kills HRASV12-expressing BJeLR cells. BJeLR (HRASV12) viability, CellTiter-Glo ATP luminescence, 48 h; reference of the scale not given here. inhibition, % (concentration not given with the values). 0.17% of 300,000 active. AID 1554;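 active = replicate mean above 50%; inconclusive = above 50% but judged a plate artefact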;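 also: 50 nL library stock added to about 25 µL; numbers are from one replicate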
Mtb hypoxia inh growth – second read-out of Mtb hypoxia inh, no call of its own (marks repeat the call); growth inhibition, %; measured here: M. tuberculosis growth (absorbance);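 0% = vehicle and 100% = reference antibiotic; read after six days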
* marks the source's active call; other numbers are inactive results; u = inconclusive; x = no result given. Hits appear at their usual frequency (roughly 3.9% active in at least one column).

SMILES	Sa RN4220 lethal	PrP 5UTR inh	Mtb hypoxia inh	Mtb hypoxia inh growth	Sa ugtP lethal	Autofluor counter	BJeLR lethal
Oc1c(CN2CCCCC2)ccc2cccnc12	1.7	20	10	2	3	2553	x
CC1SCC(NC(=O)c2ccccc2Cl)CS1 (stereo not drawn)	6.8	x	8	-5	4	5314	-9
COc1ccc(C(=O)N/C(=C\c2ccc(OC)c(OC)c2)C(=O)N2CCCCC2)cc1	1.6	-9	3	-5	10	3080	-1
Cn1c(SCc2ccccn2)nnc1-c1ccncc1	6.2	-12	3	12	8	10355	-6
CSc1cccc(NC(=O)CN(C)S(=O)(=O)c2ccc(C)cc2)c1	-3.4	-12	4	11	-10	3244	-6
CCCCOc1ccc(-c2c(C(=O)Nc3ccccc3)c(C)[nH]c(=S)c2C#N)cc1	-0.3	-10	12	-3	7	2401	1
CCOc1ccc(NC(=O)CSc2ccc(-c3ccccn3)nn2)cc1	4.8	-28	12	1	4	2172	10
COc1ccc(Cl)c2sc(N3CCN(C(C)=O)CC3)nc12	4.4	-14	6	6	8	5066	5
Oc1[nH]c2ccccc2c1/C=N/c1nccs1	x	-43	x	x	x	5073	0
CC(=O)Nc1ccc(CN2CCN(C3CCCC3)C(CCO)C2)cc1 (stereo not drawn)	x	-22	x	x	x	3097	-10
N#Cc1ccccc1	4.2	-18	13	3	11	5474	x
COc1ccccc1COC(=O)CN1C(=O)NC2(CCCCC2C)C1=O (stereo not drawn)	1.4	-13	-3	-4	5	x	x
Cc1ccnc(NS(=O)(=O)c2ccc(NC(=O)C(C)(C)C)cc2)n1	5.1	-16	14	9	2	6138	8
O=C(CCS(=O)(=O)c1ccccc1)N1CCCc2ccccc21	5.0	-12	3	4	1	5499	-5
NC(Cc1ccc2nsnc2c1)C(=O)O (stereo not drawn)	1.4	-10	-4	2	0	11889	13
Clc1cc(Br)ccc1OCCn1ccnc1	9.6	-29	14	5	-3	8986	3
CCN1C(=O)c2ccccc2Sc2ccc(C(=O)NCCC(C)C)cc21	4.7	-4	2	-4	2	4319	4
Cc1ccc(C(C(=O)NCC2CCCO2)N(C(=O)c2snc(C(N)=O)c2N)c2ccccc2)o1 (stereo not drawn)	2.2	-20	12	3	-2	5293	-12
CC(C)(C)c1cc(C2=CSC3=NCCN23)cc(C(C)(C)C)c1O	2.9	-9	x	x	13	3764	-8
C=CCN(CC(=O)NCc1ccc(OC)cc1)C(=O)c1csnn1	-0.9	-2	3	3	0	15736	1
COCCCN(CCCN)Cc1ccco1	3.1	-18	-5	-5	10	2219	-1
Cc1cc(C)c2sc(N(CCCN(C)C)C(=O)COc3ccc(Cl)cc3)nc2c1	-8.8	-6	x	x	6	4524	12
O=C(CCS(=O)(=O)c1ccccc1)Nc1ccc(S(=O)(=O)Nc2ncccn2)cc1	-0.4	-8	11	7	4	3266	4
O=S(=O)(O)c1cc(O)c2c(O)c(N=Nc3cc(Cl)ccc3O)c(S(=O)(=O)O)cc2c1	0.5	-3	22	-5	8	3218	21
Cc1ccc(NC(=O)CCc2c[nH]c3ccccc23)nc1	0.6	-25	0	-4	-6	x	48

Four compounds from above, reduced to PrP 5UTR inh, Sa ugtP lethal and Sa RN4220 lethal.
canonical_smiles	PrP 5UTR inh	Sa ugtP lethal	Sa RN4220 lethal
Oc1c(CN2CCCCC2)ccc2cccnc12	20	3	1.7
CC1SCC(NC(=O)c2ccccc2Cl)CS1 (stereo not drawn)	x	4	6.8
COc1ccc(C(=O)N/C(=C\c2ccc(OC)c(OC)c2)C(=O)N2CCCCC2)cc1	-9	10	1.6
Cn1c(SCc2ccccn2)nnc1-c1ccncc1	-12	8	6.2

The main list resumes; the six compounds before the break are reprinted first.
SMILES	Sa RN4220 lethal	PrP 5UTR inh	Mtb hypoxia inh	Mtb hypoxia inh growth	Sa ugtP lethal	Autofluor counter	BJeLR lethal
C=CCN(CC(=O)NCc1ccc(OC)cc1)C(=O)c1csnn1	-0.9	-2	3	3	0	15736	1
COCCCN(CCCN)Cc1ccco1	3.1	-18	-5	-5	10	2219	-1
Cc1cc(C)c2sc(N(CCCN(C)C)C(=O)COc3ccc(Cl)cc3)nc2c1	-8.8	-6	x	x	6	4524	12
O=C(CCS(=O)(=O)c1ccccc1)Nc1ccc(S(=O)(=O)Nc2ncccn2)cc1	-0.4	-8	11	7	4	3266	4
O=S(=O)(O)c1cc(O)c2c(O)c(N=Nc3cc(Cl)ccc3O)c(S(=O)(=O)O)cc2c1	0.5	-3	22	-5	8	3218	21
Cc1ccc(NC(=O)CCc2c[nH]c3ccccc23)nc1	0.6	-25	0	-4	-6	x	48
O=C1CCc2cc(S(=O)(=O)NCc3ccc(Cl)cc3)cc3c2N1CC3	6.1	-11	5	2	5	u	11
O=C(Oc1ccc2ccc(=O)oc2c1)c1ccc([N+](=O)[O-])cc1	7.2	-61	0	7	10	3353	0
COc1ccc(CCn2c(-c3cc([N+](=O)[O-])cc([N+](=O)[O-])c3)nc3nc4ccccc4nc32)cc1OC	-2.2	-14	1	-4	4	2677	-5
O=C(NC(=O)c1ccccc1)Nc1ccccc1O	1.8	-34	0	0	-1	3747	1
CC1CC(C)(C)Nc2ccc(N=O)cc21 (stereo not drawn)	26	-30	x	x	27	4113	3
COc1ccccc1OCCSc1nc2ccc([N+](=O)[O-])cc2s1	11	-4	-10	11	3	1996	0
O=C(Nn1cnc2ccccc2c1=O)c1ccccc1[N+](=O)[O-]	4.0	-4	-12	-5	4	4647	1
CCN1CCN(C(=O)c2cc3c(=O)oc4ccc(C)cc4c3s2)CC1	7.4	-19	x	x	4	5602	5
COc1cc(C=NNC(=O)CC(=O)NC2CCCCC2)ccc1O	1.6	x	3	4	6	x	x
COc1ccc(S(=O)(=O)N(C)c2ccc(C(=O)N3CCOCC3)cc2)cc1	5.4	-18	x	x	-1	4910	-5
COc1ccc(C(=O)N2CCCC(C(=O)O)C2)c2ccccc12 (stereo not drawn)	2.1	-24	5	12	7	4837	1
CCn1c(-c2ccccc2Cl)nn(CC(=O)Nc2ccccc2C)c1=S	6.1	-15	8	11	5	3399	-2
COC(=O)Cc1ccc(NC(=O)c2ccc(NC(=O)c3ccco3)cc2)cc1	7.7	-22	2	0	1	4400	-2
O=C(/C=C/c1cccc(C(F)(F)F)c1)N1CCN(c2ccccn2)CC1	1.2	-3	10	-4	4	4398	4
c1ccc(C(c2ccccc2)N2CCN(C(c3ccccn3)c3nnnn3C3CCCC3)CC2)cc1 (stereo not drawn)	2.0	3	1	9	4	3359	13
O=C(NC(=S)NNC(=O)c1cccs1)c1ccccc1	32	-4	-7	-1	14	6460	4
CN1CCN(C(c2ccc(F)cc2)c2nnnn2Cc2cccs2)CC1 (stereo not drawn)	1.1	-7	x	x	2	4876	0
Cc1cc(C)nc(SCc2ccc(C(=O)N/N=C/C3CCCCC3)cc2)n1	x	-11	x	x	x	2570	3
COc1ccc(S(=O)(=O)N2CCC(NC(=O)C(Cc3cccc(OC)c3OC)NC(C)=O)CC2)cc1 (stereo not drawn)	4.8	-29	11	2	6	4754	-1
Cc1onc(-c2ccccc2)c1C(=O)Nc1ncc([N+](=O)[O-])s1	80	-13	23	20	82*	6355	10
CCOC(=O)/C(C#N)=C/c1cn(CCC(=O)O)nc1-c1ccccc1	1.9	-12	15	-2	9	1957	13
CC(=O)NC1=C(NC2CCS(=O)(=O)C2)C(=O)c2ccccc2C1=O (stereo not drawn)	19	-32	16	-2	4	2586	15
CCN(CC)CCCNc1nc(N)c([N+](=O)[O-])c(N2CCCCCC2)n1	25	-10	10	-3	31	4282	-1
Nc1ccc(NC2C[C@@H](C(=O)O)NC2=O)cc1 (stereo partly drawn)	2.5	-16	0	12	15	1960	7
O=C(Nc1cccc([N+](=O)[O-])c1)N1CCc2ccccc2C1	-3.8	-35	6	4	-3	3962	1

Compounds shown so far that contain a furan ring, fused or not:
SMILES	Sa RN4220 lethal	PrP 5UTR inh	Mtb hypoxia inh	Mtb hypoxia inh growth	Sa ugtP lethal	Autofluor counter	BJeLR lethal
Cc1ccc(C(C(=O)NCC2CCCO2)N(C(=O)c2snc(C(N)=O)c2N)c2ccccc2)o1 (stereo not drawn)	2.2	-20	12	3	-2	5293	-12
COCCCN(CCCN)Cc1ccco1	3.1	-18	-5	-5	10	2219	-1
COC(=O)Cc1ccc(NC(=O)c2ccc(NC(=O)c3ccco3)cc2)cc1	7.7	-22	2	0	1	4400	-2

The listing continues.
SMILES	Sa RN4220 lethal	PrP 5UTR inh	Mtb hypoxia inh	Mtb hypoxia inh growth	Sa ugtP lethal	Autofluor counter	BJeLR lethal
CC(C)N(O)C(=O)NC(C)(C)C	-2.2	-15	x	x	6	4864	4
CCOc1cc(/C=C2\NC(=S)N(c3c(C)n(C)n(-c4ccccc4)c3=O)C2=O)ccc1O	4.9	-13	12	6	8	2457	9
CC1CCN(CCNC(=O)C2CCCN(S(=O)(=O)c3cccc4nonc34)C2)CC1 (stereo not drawn)	1.7	-2	x	x	3	4986	0
NC1=NC(=O)/C(=C/c2cc(Br)c(O)c(Br)c2)S1	8.4	-19	-1	1	4	2920	-7
O=C(NCc1ccccc1)C1=C[C@@H](c2ccc3c(c2)OCO3)C[C@@H](OCc2ccc(CO)cc2)O1	x	-20	x	x	x	3976	5
CCOC(=O)C(C)N1C(=O)S/C(=C\c2ccc(-c3ccccc3C(=O)O)o2)C1=O (stereo not drawn)	2.1	-32	12	4	0	3862	3
O=S1(=O)CCC(NC(=S)NCCNC(=S)NC2CCS(=O)(=O)C2)C1 (stereo not drawn)	4.9	-20	-4	3	-1	2065	-2
COc1ccc(C(=O)NCc2nnc(SCC(=O)Nc3cccc(C(F)(F)F)c3)o2)cc1OC	2.9	-21	x	x	0	4183	-1
COc1ccc(S(=O)(=O)NCCC(=O)N2CCCN(C)CC2)cc1	2.4	-8	10	-2	2	3919	x
O=c1oc(-c2ccccc2NS(=O)(=O)c2ccc3ccccc3c2)nc2ccccc12	4.5	-2	5	2	0	9858	-4
O=C(c1ccc2nc3ccc(Cl)cc3c(=O)n2c1)N1CCC2(CC1)OCCO2	3.6	-21	3	5	6	19917*	x
CC1=NN(c2ccc(C)c(C)c2)C(=O)/C1=C/c1ccc2c(c1)n(C)c(=O)n2C	2.0	7	0	8	2	2326	8
Cc1ccc(C)c(OCC(=O)NNC(=O)c2ccc(NC(=O)C3CC3)cc2)c1	-1.7	-28	10	10	12	5205	x
COCCNC(=O)CN(C(=O)Cn1nnc2ccccc21)c1cccc(C)c1C	2.0	-9	11	6	5	4572	-15
CCC(C)C1CN(C(C)CN2CCCC2CN2C(N)=NCC2CC(C)C)C(=N)N1CCc1ccc(Cl)c(Cl)c1 (stereo not drawn)	101*	x	x	x	99*	x	x
Cc1onc(-c2ccccc2Cl)c1C(=O)OCC(=O)N1CCCc2ccccc21	7.8	-3	0	7	-7	4047	-3
Cc1ccc(-n2ncc3c2CCCC3NC(=O)CCc2cnn(C)c2)cc1C (stereo not drawn)	-2.3	-4	-6	-3	-4	5447	13
Cc1ccc(S(=O)(=O)C2(C(=O)NC3CCCCC3C)CC2)cc1 (stereo not drawn)	1.4	-10	-4	-2	0	4830	-4
Cc1cc(SCc2cc(=O)[nH]c3ccccc23)nc2ccccc12	18	3	10	6	6	2546	9
CC(C)CC(NC(=O)OC(C)(C)C)C(=O)NC(C(=O)N1CCCC1C(N)=O)C(C)C (stereo not drawn)	-15	-15	7	4	-1	2452	-3
CCOC(=O)c1ccc(NC(=O)COc2cc(=O)n(CC)c3ccccc23)cc1	-1.5	-5	x	x	10	6156	9
CCc1n[nH]c(=S)n1/N=C/c1c[nH]c2ccc(Br)cc12	x	-14	x	x	x	3158	-4
COc1ccc(N2CCN(Cc3nc4ccccc4[nH]3)CC2)cc1	-0.1	-11	-8	12	2	4010	-3

Among those listed so far, these have a CF3 group.
SMILES	Sa RN4220 lethal	PrP 5UTR inh	Mtb hypoxia inh	Mtb hypoxia inh growth	Sa ugtP lethal	Autofluor counter	BJeLR lethal
O=C(/C=C/c1cccc(C(F)(F)F)c1)N1CCN(c2ccccn2)CC1	1.2	-3	10	-4	4	4398	4
COc1ccc(C(=O)NCc2nnc(SCC(=O)Nc3cccc(C(F)(F)F)c3)o2)cc1OC	2.9	-21	x	x	0	4183	-1

Bioassay records (PubChem BioAssay)
